# Measles inh – inhibitors of measles virus growth in cells, primary screen, measles RdRp inhibitor project, cell-based, single point, HTS; AID 745, 2007; infected Vero cells, GFP fluorescence, 64 h; active compounds read low; z-score (concentration not given with the values); 0.1% of 33,000 active;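 active = z-score under -3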;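 note: score is relative to mean and SD of the compound wells of a plate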
# Active calls of the source: *. An excerpt; the hit share may differ from the screen's.
# Start of the data: the first 17 records (preview)
Measles inh	Structure
-1.13	O=C1C2CC=CCC2C(=O)N1c1ccc(N2CCC(O)(c3ccc(Cl)c(C(F)(F)F)c3)CC2)c([N+](=O)[O-])c1 (configuration not stated)
-0.57	O=C(CSc1nc(O)cc(=O)[nH]1)N1CCCCCC1
1.64	COc1ccc(C(=O)Nc2cc(C(=O)Nc3cccc(C(C)=O)c3)ccc2N2CC3CC(C2)c2cccc(=O)n2C3)cc1 (configuration not stated)
-0.01	O=C(NC1CCCCC1)C1CCN(C(=O)c2ccccc2)CC1
0.39	O=S(=O)(Cc1cccc(Cl)c1)c1nc(C(F)(F)F)cc(C(F)(F)F)n1
-0.3	CSc1ccccc1NC(=O)COc1ccc(Cl)cc1C
-0.54	O=[N+]([O-])c1cc(Oc2cccnc2)cc(Sc2ccccc2)c1
0.89	Cc1ccc(C)n1-c1ccc(Cl)cc1C(=O)O
0.05	Cc1c(Br)c([N+](=O)[O-])nn1CC(=O)NCc1ccco1
-0.45	Cc1c2c(=O)n(-c3nc4ccccc4s3)[nH]c2cc(=O)n1CCc1ccccc1
-0.46	COc1ccc(C(=O)CC(=O)C(=O)Nc2cccc([N+](=O)[O-])c2C)cc1
1.14	Cc1nc2n(CC(=O)N3CCCCC3)c3ccccc3n2n1
0.09	Cn1c(=O)cc(SCC(=O)N2CCC(Cc3ccccc3)CC2)c2ccc(Cl)cc21
-0.23	CCOC(=O)c1cnc2ccc(OCC)cc2c1NC(C)CC (configuration not stated)
0.22	CC(Sc1nnc(N)s1)C(=O)Nc1ccc(S(N)(=O)=O)cc1 (configuration not stated)
-0.64	Cc1cccc(Nc2nc(-c3ccc(F)c(C)c3)cs2)n1
0.62	COc1ccc(N2C(=O)CC(Sc3ncn[nH]3)C2=O)cc1 (configuration not stated)

# The whole of this part, repeating the preview:
Measles inh	Structure
-1.13	O=C1C2CC=CCC2C(=O)N1c1ccc(N2CCC(O)(c3ccc(Cl)c(C(F)(F)F)c3)CC2)c([N+](=O)[O-])c1 (configuration not stated)
-0.57	O=C(CSc1nc(O)cc(=O)[nH]1)N1CCCCCC1
1.64	COc1ccc(C(=O)Nc2cc(C(=O)Nc3cccc(C(C)=O)c3)ccc2N2CC3CC(C2)c2cccc(=O)n2C3)cc1 (configuration not stated)
-0.01	O=C(NC1CCCCC1)C1CCN(C(=O)c2ccccc2)CC1
0.39	O=S(=O)(Cc1cccc(Cl)c1)c1nc(C(F)(F)F)cc(C(F)(F)F)n1
-0.3	CSc1ccccc1NC(=O)COc1ccc(Cl)cc1C
-0.54	O=[N+]([O-])c1cc(Oc2cccnc2)cc(Sc2ccccc2)c1
0.89	Cc1ccc(C)n1-c1ccc(Cl)cc1C(=O)O
0.05	Cc1c(Br)c([N+](=O)[O-])nn1CC(=O)NCc1ccco1
-0.45	Cc1c2c(=O)n(-c3nc4ccccc4s3)[nH]c2cc(=O)n1CCc1ccccc1
-0.46	COc1ccc(C(=O)CC(=O)C(=O)Nc2cccc([N+](=O)[O-])c2C)cc1
1.14	Cc1nc2n(CC(=O)N3CCCCC3)c3ccccc3n2n1
0.09	Cn1c(=O)cc(SCC(=O)N2CCC(Cc3ccccc3)CC2)c2ccc(Cl)cc21
-0.23	CCOC(=O)c1cnc2ccc(OCC)cc2c1NC(C)CC (configuration not stated)
0.22	CC(Sc1nnc(N)s1)C(=O)Nc1ccc(S(N)(=O)=O)cc1 (configuration not stated)
-0.64	Cc1cccc(Nc2nc(-c3ccc(F)c(C)c3)cs2)n1
0.62	COc1ccc(N2C(=O)CC(Sc3ncn[nH]3)C2=O)cc1 (configuration not stated)
0.01	CCc1ccc(C2=CC(c3cccc(Br)c3)n3ncnc3N2)cc1 (configuration not stated)
0.35	O=c1c(-c2ccc3c(c2)OCCCO3)coc2cc(O)ccc12
1.54	CC(=O)Oc1c(Sc2ccc(Cl)cc2)c(C)nn1-c1ccccc1
-0.11	O=C(O)c1c[nH]c2ccc(S(=O)(=O)N3CCCCC3c3cccnc3)cc2c1=O (configuration not stated)
-0.31	COc1cc2[nH]c(=O)nc(NCc3ccccc3)c2cc1OC
2.4	CCS(=O)(=O)Nc1cccc(C2=NN(S(C)(=O)=O)C(c3ccccc3C)C2)c1 (configuration not stated)
1.71	O=c1oc(-c2ccco2)nc2c1cnn2-c1ccccc1
0.46	COc1cc(C2C(C(=O)Nc3cccc(C)n3)=C(C)NC3=C2C(=O)CC(C)(C)C3)ccc1O (configuration not stated)
-0.98	COc1ccc2cc(C(=O)NCc3ccccc3)c(=Nc3ccc(C(=O)O)cc3)oc2c1
-0.12	CS(=O)(=O)N1CCC(C(=O)N2CCCC2)CC1
1.06	CCn1c(C)[n+](CC)c2ccc(S(N)(=O)=O)cc21
-0.85	O=C(Nc1ccc(NC(=O)c2cc([N+](=O)[O-])ccc2Cl)cc1)c1cccs1
-0.25	CC(=O)CC(O)(c1ccccc1)C(F)(F)C(F)F (configuration not stated)
-0.96	CCCC(=O)Nc1cc2nn(-c3ccc(C)cc3)nc2cc1C
-0.43	COc1ccc(OCCSc2nc(N)cc(=O)[nH]2)cc1
1.84	COc1ccc(CNC(=O)C(C)N(c2ccccc2)S(C)(=O)=O)cc1 (configuration not stated)
1.32	CCCCc1ccc(-n2nc3ccc(N)cc3n2)cc1
-0.15	CCN(CC)S(=O)(=O)c1cccc(C(=O)Nc2sc3c(c2C#N)CCC(C)C3)c1 (configuration not stated)
0.34	NS(=O)(=O)c1cc(S(N)(=O)=O)c2cccc3c2c1NC3=O
-0.62	CCCCCCOc1ccc(NC(=O)c2cccs2)cc1
0.14	CCOc1ccc(NC(=O)CSc2cc(=O)n(C)c3ccccc23)cc1
0.37	CCCCOC(=O)c1ccc(NC(=O)c2cnc3n(c2=O)CCS3)cc1
-0.8	N=c1oc2ccccc2cc1C(=O)Nc1ccc(F)cc1
0.51	CCn1c(=NC(=O)c2ccc(S(=O)(=O)N(C)c3ccccc3)cc2)sc2ccccc21
-1.08	Cc1cc2c(=O)oc(-c3ccc(C(C)(C)C)cc3)nc2s1
-0.05	COC(=O)Cn1c(CCS(=O)(=O)c2ccc(Br)cc2)nc2ccccc21
0.21	Cc1ccc(Cl)cc1NC(=O)c1cc2n(n1)C(C(F)(F)F)CC(c1ccc3c(c1)OCO3)N2 (configuration not stated)
0.37	CC1CCN(S(=O)(=O)c2ccc3ncn(CC(=O)Nc4ccccn4)c(=O)c3c2)CC1
-0.09	COc1cc(OC)cc(-n2c(=O)c3sccc3n(Cc3ccccc3F)c2=O)c1
0.33	Cc1sc2nc3c(C(=O)N4CCN(c5ccccn5)CC4)cccn3c(=O)c2c1C
-0.54	CC(C(=O)Nc1nc(-c2ccccc2)cs1)N1C(=O)c2ccccc2C1=O (configuration not stated)
-0.45	OCCCNc1ncnc2oc(-c3ccccc3)c(-c3ccccc3)c12
-0.01	Cc1cc(O)c(C=Nc2ccc(C(=O)O)cc2)c(C)c1Cl
0.01	Cc1ccc(N2C(=O)C(Oc3ccccc3)C2c2ccccc2Cl)cc1C (configuration not stated)
-0.09	COc1ccc(N(C)C(=O)Cc2c(C(=O)O)[nH]c3ccccc23)c(OC)c1
-0.34	COCCOC(=O)C1=C(N)OC2=C(C(=O)CCC2)C1c1ccc(Br)cc1 (configuration not stated)
1.46	CN1C(=O)c2ccc(S(=O)(=O)c3ccc(C(=O)O)cc3)cc2C1=O
-0.61	O=C(Oc1ccc2ccc(=O)oc2c1)c1cccc([N+](=O)[O-])c1
-1.46	Cc1cc2c(cc1C)C1c3ccccc3C2C2C(=O)C=CC(=O)C12 (configuration not stated)
0.36	O=C1CSc2ccc(C(=O)NCc3ccc(F)cc3)cc2N1
-0.73	COc1ccc(N2CCN(C(=O)CCn3c(=O)[nH]c4ccsc4c3=O)CC2)cc1
0.73	Cc1c(NC(=O)c2ccc(F)cc2)c(=O)n(-c2ccccc2)n1C
-0.45	Cc1sc(NC(=O)c2cc3n(n2)C(C(F)(F)F)CC(c2cccs2)N3)c(C(=O)OC(C)C)c1C (configuration not stated)

# (further entries)
Measles inh	Structure
0.22	COC(=O)C1=C(N)OC2=C(C(=O)CC(c3ccccc3)C2)C1c1ccc(C)cc1 (configuration not stated)
-0.15	CCc1ccc(NC(=O)CSc2cccc3ccc(C)nc23)cc1
-0.19	CC1CCc2c(sc(NC(=O)c3cccs3)c2C(=O)N2CCOCC2)C1 (configuration not stated)
-0.47	CCc1nc(Oc2ccc3ccc(=O)oc3c2)c2c3c(sc2n1)CCCC3
-0.5	CCOC(=O)C(=O)N1N=C(c2ccc(Br)cc2)CC1(O)C(F)(F)F (configuration not stated)
0.14	Nc1ccc(F)cc1-c1nc2ccccc2[nH]c1=O
1.85	CCc1ccc2nc(N3CCC(C(=O)NC(C)c4ccccc4)CC3)sc2c1 (configuration not stated)
-0.39	CC(=O)OC(CCN1CC2CCN1CC2)c1ccccc1 (configuration not stated)
-0.31	C#CCOC(=O)c1sc2ccccc2c1Cl
-1.08	CCCNc1ncnc2nc[nH]c12
0.27	Cn1cc(C(=O)NCc2ccc(F)cc2)c2c3ccccc3n(C)c2c1=O
-0.96	CC1Sc2sc(=S)sc2SC(C)(C)C1=O (configuration not stated)
0.13	CCOc1ccc(C2/C(=C(\O)c3ccc(Cl)cc3)C(=O)C(=O)N2CC(C)C)cc1 (configuration not stated)
-0.47	Cc1ccc(S(=O)(=O)NC(CC(=O)NCc2ccco2)c2ccco2)cc1 (configuration not stated)
-0.22	O=C(C1CCN(S(=O)(=O)c2cccs2)CC1)N1CCN(c2ccccc2F)CC1
-0.47	CCCOC(=O)C1=C(C)NC(=O)NC1c1ccc(OC)cc1 (configuration not stated)
-0.89	CC1CC(C)CN(S(=O)(=O)c2ccc(F)c(C(=O)NCc3ccc4c(c3)OCO4)c2)C1 (configuration not stated)
-0.04	CCN(CC)c1ccc(Nc2nc(-c3ccccc3)cs2)cc1
-0.29	CC1CCc2c(sc3[nH]c(=S)n(-c4ccccc4)c(=O)c23)C1 (configuration not stated)
0.48	CCCc1ccc(-c2ccc(C(=O)Nc3ccc([N+](=O)[O-])cc3)cc2)nc1
-0.08	COc1ccc(NC(=O)c2cc3n(n2)C(C(F)(F)F)CC(c2ccc(C)cc2)N3)c(OC)c1 (configuration not stated)
-0.64	O=C(NCc1ccccc1)c1nn2c(C(F)(F)F)cc(-c3ccco3)nc2c1Cl
-0.91	COc1cc2c(C(=O)N(C)c3cc(Cl)ccc3OC)cn(C)c(=O)c2cc1OC
-0.59	O=C(NCCc1ccccc1Cl)c1ccc(N2CC3CC(C2)c2cccc(=O)n2C3)c([N+](=O)[O-])c1 (configuration not stated)
-0.91	CCc1ccc(C2NC(=O)NC(C)=C2C(=O)OCC(C)C)cc1 (configuration not stated)
1.63	COc1cccc(Nc2ncnc3sc(C)c(S(=O)(=O)N4CCC(C)CC4)c23)c1
-0.27	CCCCCn1c(NCc2c[nH]c3ccccc23)nc2ccccc21
2.31	COc1cc(-c2c(C#N)c(N)nc3sc(C(=O)c4ccccc4)c(N)c23)cc(OC)c1OC
-0.02	CC1=Nc2ccc3ccccc3c2C1(C)C
-0.52	COc1ccc(/C(O)=C2\C(=O)C(=O)N(CCN3CCNCC3)C2c2ccc(OC)cc2)cc1 (configuration not stated)
-0.05	CN1C(=O)CC(C(=O)O)SC1=Nc1ccc(I)cc1 (configuration not stated)
0.17	COc1ccc(S(=O)(=O)N2CCCN(Cc3ccccc3F)CC2)cc1
-0.58	COc1ccccc1-c1nnc(NC(=O)c2ccc(S(=O)(=O)N(C)Cc3ccccc3)cc2)o1
-0.12	COc1cc2c(cc1OC)C1(C)N(CC2)C(=O)OC12CCCCC2 (configuration not stated)
-0.04	COC(=O)c1ccc(N2C(=O)c3ccc(C(=O)O)cc3C2=O)cc1
1.12	C=CCN(C(=O)CSc1nc2ccsc2c(=O)n1CC)c1ccccc1
0.24	Nc1cc(OC(=O)c2ccc(-c3ccccc3)cc2)nn1S(=O)(=O)c1ccc(F)cc1
-0.14	Cc1cccc(Nc2nc(-c3ccccc3)c(CC(=O)O)s2)c1C
-1.28	CC12CC(NC(=O)N1c1ccc(C(=O)N3CCN(c4ccc([N+](=O)[O-])cc4)CC3)cc1)c1ccccc1O2 (configuration not stated)
1.47	COc1cccc(C2=NC(C)(C)NC(c3cc(Br)ccc3O)C2)c1 (configuration not stated)
0.95	CC1=C(C)CC(C(=O)NCCCCc2ccccc2)C(C(=O)O)C1 (configuration not stated)
-1.54	CCc1cccc(C)c1NC(=O)c1cc(S(=O)(=O)NCCC2=CCCCC2)ccc1F
-0.2	CCOC(=O)C(C)Sc1nc2c([nH]c3ccccc32)c(=O)n1C (configuration not stated)
-1.39	CC(C)c1ccc(OCC(=O)Nc2sc3c(c2C#N)CCCC3)cc1
-0.46	Cc1ccc(C(C(=O)Nc2ccc(C(C)C)cc2)N(C)C(=O)Cc2cccs2)cc1 (configuration not stated)
-0.02	O=C(CN1C(=O)COc2ccccc21)NCCN1CCOCC1
-0.93	O=C(NCCc1ccccc1)c1cc2nc(-c3ccco3)cc(C(F)(F)Cl)n2n1
0.6	Cc1ccccc1OCC(=O)OCC(=O)c1ccc([N+](=O)[O-])cc1
1.59	CN(C)S(=O)(=O)c1ccc(C(=O)Nc2ccccc2-c2nc3ccccc3[nH]2)cc1
0.5	Cc1ccc2c(c1)c(=O)c1ccccc1n2CC(=O)NCc1ccc(F)cc1
-0.96	COc1ccc(OC)c2[nH]c(=O)c(CCNS(=O)(=O)c3ccc(Cl)cc3)cc12
-1.08	COc1cc2c(C(=O)N(C)c3ccccc3C)cn(CC(C)C)c(=O)c2cc1OC
0.35	CCOCN(C(=O)Cn1cnc2ccccc21)c1c(C)cccc1CC
-0.35	CCC(CCC(=O)Nc1ccn(-c2ccccc2)n1)C(=O)O (configuration not stated)
-0.21	COc1cc2c(=O)n(-c3ccc(C)cc3)c(=O)n(CC(=O)NCc3ccco3)c2cc1OC
-0.06	COC(=O)C1=C(C)Nc2ncnn2C1c1ccc(Cl)cc1 (configuration not stated)
-0.82	Cc1cccn2c(=O)c3cc(C(=O)N(Cc4ccccc4)Cc4ccccc4)sc3nc12
-0.25	CC1=Nc2cc(C(=O)NC(C)c3ccc4c(c3)OCCO4)ccc2Sc2ccc(Cl)cc21 (configuration not stated)
0.72	N#CCSc1nc2c(c(=O)n1C1CCCC1)C1(CCCCC1)Cc1ccccc1-2
